Source: PubChem BioAssay (ICCB-Longwood Screening Facility, Harvard Medical School)
MgrA-DNA mod: alters Staphylococcus aureus MgrA binding to DNA; fluorescence polarization; inhibition, %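 (about 10 µg/mL by stock and volumes)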; 84,000 tested, 0.13% active;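 active = above 50% in either of two replicates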;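 also: 0% = protein plus DNA without compound and 100% = DNA alone without protein; higher means less MgrA bound to DNA so lower polarization; one replicate is shown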
S aureus helic: blocks Staphylococcus aureus DNA helicase; AID 485395; 120,000 tested, 0.05% active; inhibition, %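 (tested at about 80 µM)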; purified S. aureus helicase, fluorescence unwinding assay; about half of the hits fall short of the stated cut;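 active = both duplicates at 50% or more, or one of them with a favoured structure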;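 also: 0% = mean of negative control wells and 100% = mean of positive control wells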
* marks the source's active call; other numbers are inactive results; · = no result given.

SMILES	MgrA-DNA mod	S aureus helic
Cc1ccc2c(COC(=O)CNC(=O)c3ccc(Br)o3)cc(=O)oc2c1	·	28
C=CCn1c(SCC(=O)C(C#N)c2nc(C)cs2)nc2ccccc21 (configuration not stated)	·	9
CSCC(=O)Nc1cc(C)on1	-2.5	·
N#CC1(N2CCN(C3(C#N)CCCC3)CC2)CCCC1	2.4	11
Cc1ccc(-c2nn(C)c(=O)c3ccccc23)cc1CNC(=O)Nc1ccccc1	3.9	10
Cc1ccc(N2C(=O)/C(=C/c3ccc(N(C)C)cc3)S(=O)(=O)C2c2ccccc2)cc1 (configuration not stated)	-1.7	·
Cn1c(=NC(=O)C2CC2)sc2ccc3ccccc3c21	·	17
N#CCCN1c2ccccc2Sc2ccc(Cl)cc21	1.9	-10
Cc1cc(/C=C2/NC(=O)N(Cc3ccccc3F)C2=O)c(C)n1-c1ccc(S(N)(=O)=O)cc1	1.8	5
CCOC(=O)C1=C(C)N=c2s/c(=C/c3ccc(OC(C)=O)c(OC)c3)c(=O)n2C1c1ccc(OC(C)=O)cc1 (configuration not stated)	0.1	·
NC(=O)CSc1nnc(Cc2cc(=O)[nH]c(=O)[nH]2)n1-c1ccccc1	-2.4	20
Cc1ccc(C23CC4CC(CC(C(=O)NN5CCN(CCO)CC5)(C4)C2)C3)cc1	0.5	0
c1cncc(-c2noc(C3CCCCC3)n2)c1	-1.9	3
O=C1CCN(S(=O)(=O)c2ccc(Cl)cc2)CC1	-2.2	·
CN(C)c1ccc(C(C(=O)NCC2CCCO2)N(C(=O)Cn2nnc3ccccc32)c2ccc3c(c2)OCO3)cc1 (configuration not stated)	3.6	1
CCC(=O)c1ccc(OC)cc1OC	0.1	·
CC1(C)C(=O)N(c2ccccc2)C(=O)c2ccccc21	0.6	-22
c1ccc(C(Sc2nnc(-c3ccc4c(c3)OCO4)o2)c2ccccc2)cc1	·	-4
c1cn2c3c(n1)CCCc3c1cc(C3CCCCC3)ccc12	3.7	1
O=C(O)C1CNC(=O)N1C(=O)OCc1ccccc1 (configuration not stated)	-2.4	·
O=c1cc(CSc2nnc(SCC3CC3)s2)c2ccc(O)cc2o1	2.4	·
NS(=O)(=O)c1ccc(CCNc2ncnc3nc[nH]c23)cc1	·	32
CCOc1cc(C(NC(=O)c2ccco2)NC(=O)c2ccco2)ccc1OC	·	5
CCc1c(C)nc(-n2nc(C)cc2C)nc1Nc1ccccc1	-1.8	·
O=C(CSc1ncc(C(F)(F)F)cc1Cl)N(CC1CCCO1)C1CCS(=O)(=O)C1 (configuration not stated)	·	-3

An excerpt of these results, with bars between the fields.
canonical_smiles | MgrA-DNA mod | S aureus helic
Cc1ccc(C23CC4CC(CC(C(=O)NN5CCN(CCO)CC5)(C4)C2)C3)cc1 | 0.5 | 0
c1cncc(-c2noc(C3CCCCC3)n2)c1 | -1.9 | 3
O=C1CCN(S(=O)(=O)c2ccc(Cl)cc2)CC1 | -2.2 | ·
CN(C)c1ccc(C(C(=O)NCC2CCCO2)N(C(=O)Cn2nnc3ccccc32)c2ccc3c(c2)OCO3)cc1 (configuration not stated) | 3.6 | 1
CCC(=O)c1ccc(OC)cc1OC | 0.1 | ·
CC1(C)C(=O)N(c2ccccc2)C(=O)c2ccccc21 | 0.6 | -22

(continued)
SMILES	MgrA-DNA mod	S aureus helic
Cc1ccc(CC2CC(=O)N(C3CCCCC3)C2=O)cc1 (configuration not stated)	-0.3	-3
COC(=O)c1c(-n2cccc2)sc(C)c1C	0.2	-2
CN(CCCNCC1CC2C=CC1C2)c1ccccc1 (configuration not stated)	·	-1
Cc1nc2ccccc2n1CCN=Cc1c(O)[nH]c(=O)[nH]c1=O	·	-20
O=C(O)CC(NC(=O)c1ccco1)c1ccc(F)cc1 (configuration not stated)	-0.1	1
COc1ccc(C(=O)OCC(=O)NCC2CCCCC2)c(OC)c1	·	5
CCC1CCCCN1C(=O)COC(=O)c1ccc(Br)o1 (configuration not stated)	0.2	1
Cc1c(C#N)sc(C(=O)N=CN(C)C)c1C	1.6	·
CC1CCCCC1NC(=O)NC(=O)CSc1nc(N)cc(N)n1 (configuration not stated)	·	-7
Cn1c(=O)c2c(nc(NCc3ccc4c(c3)OCO4)n2Cc2cccc(Cl)c2)n(C)c1=O	2.1	·
O=C(NCSc1ncccn1)c1ccccc1	·	16
CC(C)(C)C(=O)C[n+]1cccc(C(N)=O)c1	0.7	5
OCn1c2ccccc2c2ccccc21	-1.2	·
CN(C)c1ccc(C(=O)Nc2ccc(-c3nc4ccccc4o3)cc2)cc1	·	2
O=C(O)/C=C/C(=O)Nc1ccc(-n2nc(C(F)(F)F)cc2C(F)(F)F)cc1	-0.3	·
Cc1cccc(NC(=O)CSc2ncnc3c2oc2ccccc23)c1C	·	16
O=C(Cn1c(=O)sc2ccccc21)Nc1sc2c(c1C(=O)O)CCCC2	·	6
Cc1ccc(OC(=O)CCc2c(C)nc3ncnn3c2C)cc1	·	-3
CC1C2CC(CN2C(=O)Cc2c[nH]c3ccccc23)CC1(C)C (configuration not stated)	0.9	-8
O=c1[nH]c2cc(F)ccc2c(O)c1-c1ccccc1	-2.2	·
O=C(CCc1nc(-c2ccc(Cl)cc2)no1)Nc1ccc(F)cc1	-1.4	·
CCC(=O)Nc1cc(NC(=O)CC)cc(C(=O)O)c1	-1.9	0
O=C(O)C1=C(C(=O)Nc2ccc(F)c(Cl)c2)CCCC1	-2.7	18
c1csc(-c2cnc3n2CCCC3)c1	-4.1	3
CCN(CC(=O)Nc1ccc2c(c1)CCC2)CC(=O)Nc1ccc2c(c1)OCCO2	·	-5

The list goes on; it opens with the 3 that closed the last part.
SMILES	MgrA-DNA mod	S aureus helic
O=C(O)C1=C(C(=O)Nc2ccc(F)c(Cl)c2)CCCC1	-2.7	18
c1csc(-c2cnc3n2CCCC3)c1	-4.1	3
CCN(CC(=O)Nc1ccc2c(c1)CCC2)CC(=O)Nc1ccc2c(c1)OCCO2	·	-5
O=C(Nc1ccc2oc3ccccc3c2c1)C1COc2ccccc2O1 (configuration not stated)	·	-6
N#Cc1c(F)cccc1NCCc1ccccn1	1.3	·
COC(=O)CSc1nnc(-c2ccccc2)o1	0.0	10
COc1ccc(-c2cc3ccccn3c2C(=O)c2cccnc2)c(OC)c1	-1.2	26
NC(=O)c1nnc2ccc(Cl)cc2c1N	-0.8	·
C=CCn1c2ccccc2c2nnc(SCc3ccc4nonc4c3)nc21	-2.3	6
CCCCN(C)C(=O)c1cn(C2CCCC2)c(=O)c2c1c1ccccc1n2C	·	3
O=C(OCC(=O)N1CCCCC1)c1ccccc1O	-0.9	-17
CCOC(=O)Nc1ccc2ncn(C)c(=O)c2c1	1.4	-18
COc1ccc2cc(/C(C)=N/OC(=O)Nc3cc(Cl)cc(Cl)c3)ccc2c1	-2.6	·
Cc1cc(C(F)(F)F)nc2c(Br)c(C(C)(C)C)nn12	-0.1	·
CCOC(=O)c1sc(SC)c(S(C)(=O)=O)c1N	-2.1	·
C=C(C)CN=C1SC(C(=O)Nc2sc3c(c2C(=O)OC)CCC3)C(N)=C1C(N)=O (configuration not stated)	·	-13
Cc1ccc(NC(=O)c2ccccc2N)cc1C	-2.0	·
CN(C)C(=N)c1n[nH]nc1SCc1ccccc1	-0.5	4
O=C(c1ccc(Cl)cc1)C1CCN(C(=O)N2CCOCC2)CC1	-0.5	-5
N#Cc1c(-c2ccc3c(c2)OCO3)cc(-c2ccccc2)nc1N	0.7	6
COc1cc(OC)c(C(=O)CCCN2CCCC2)c(OC)c1	0.6	·
CC12CN(C(=O)Cc3ccccc3)CC(C)(CN(C(=O)Cc3ccccc3)C1)C2=O	·	32
CCOC(=O)Cc1csc(COc2ccc(C3SCCS3)cc2)n1	-3.2	·
O=C(c1cc2ccccc2oc1=O)N(Cc1cccs1)Cc1cccs1	0.8	4
O=S(=O)(Nc1ccc(O)cc1)c1cc(Br)ccc1Br	3.8	20
COc1cccc(CC(=O)OCC(=O)c2cccc(Cl)c2)c1	0.4	7
O=C(c1ccc2c(c1)ncn2C1CCCCC1)n1ccnc1	1.4	11
CC(C)[C@H](NC(=O)c1ccccc1)C(=O)OCc1nnc(-c2ccccc2)o1	·	-15

In another format: results already given.
Values run as follows: MgrA-DNA mod	S aureus helic
> NC(=O)c1nnc2ccc(Cl)cc2c1N
 : -0.8	·
> C=CCn1c2ccccc2c2nnc(SCc3ccc4nonc4c3)nc21
 : -2.3	6
> CCCCN(C)C(=O)c1cn(C2CCCC2)c(=O)c2c1c1ccccc1n2C
 : ·	3
> O=C(OCC(=O)N1CCCCC1)c1ccccc1O
 : -0.9	-17
> CCOC(=O)Nc1ccc2ncn(C)c(=O)c2c1
 : 1.4	-18
> COc1ccc2cc(/C(C)=N/OC(=O)Nc3cc(Cl)cc(Cl)c3)ccc2c1
 : -2.6	·

Next section:
SMILES	MgrA-DNA mod	S aureus helic
CN1C(=O)S/C(=C/c2ccccc2OCc2ccc(C(=O)O)cc2)C1=O	6.4	12
Cc1ccc2c(c1)cc1c(=O)n(CC(=O)N3CCCC3)nc(C)n12	-1.7	14
CCOC(=O)c1sc(Nc2ccccc2)nc1C	·	3
COC(=O)c1sccc1NC(=O)c1cccs1	0.0	·
CC(=O)N(C1=NCCCCS1)c1ccccc1	-1.5	5
COC(=O)C1C(=O)C2=C(CC1C)Nc1ccccc1NC2c1ccc(O)c(OC)c1 (configuration not stated)	-0.6	3
CC1(CC(=O)Nc2ccccc2)NN=C(c2ccccc2)S1 (configuration not stated)	3.5	19
Cc1cc(NC(=O)CCCC(=O)O)no1	·	4
CC1CC(C)CN(S(=O)(=O)c2ccc3c(c2)oc(=O)n3CC(=O)NC(C)c2ccccc2)C1 (configuration not stated)	2.5	6
Cc1cccn2cc(CNC(=O)c3ccco3)nc12	·	9
O=C(Nc1ccc(S(=O)(=O)NCc2ccco2)cc1)C1=NN(C2CCS(=O)(=O)C2)C(=O)CC1 (configuration not stated)	·	-4
CC(=O)Nc1cc(=O)oc2ccc(NC(=O)c3ccc(F)cc3)cc12	2.9	·
O=C(CSC1=NCCS1)N1CCC(Cc2ccccc2)CC1	·	13
COc1ccc(C(=O)NNC(=O)c2ccc(-n3c(C)ccc3C)cc2)cc1OC	4.4	·
CC(C)c1ccc(NC2=CC(=O)CCC2)cc1	0.7	-7
O=c1[nH]n(Cc2ccccc2)c2ccccc12	·	-12
COc1ccc(-c2cc(=O)c3ccccc3o2)cc1	·	5
O=C(CC1(O)C(=O)Nc2ccccc21)c1ccc2ccccc2c1 (configuration not stated)	0.6	10
COC(=O)c1cc(S(=O)(=O)N(C)c2ccc(C)c(C)c2)c[nH]1	·	4
O=c1c(Cl)c(N2CCCC2)cnn1-c1nc2ccccc2s1	·	17
Cc1ccc(S(=O)(=O)c2c(C)nn(-c3ccccc3)c2OC(=O)c2ccco2)cc1	·	1
COc1ccc(C(=O)COC(=O)c2ccc(N3C(=O)C4CC=CCC4C3=O)cc2)cc1 (configuration not stated)	0.1	·
O=C(CSc1ccccn1)C12CC3CC(CC(C3)C1)C2	-2.1	-17
O=S(=O)(Cc1nc(-c2ccc(Cl)cc2)cs1)c1cccs1	-1.8	·
CN(C(=O)COc1ccc(-c2nn(C)c(=O)c3ccccc23)cc1)C1CCCCC1	·	8

New compounds follow.
SMILES	MgrA-DNA mod	S aureus helic
COc1ccccc1CNC(=O)c1ccc2c(SCC(=O)O)c3c(nc2c1)CCCC3	-7.1	21
O=C(O)/C=C/C(=O)N1CCN(c2cccc(Cl)c2)CC1	1.8	-14
CCn1c(CCNC(=O)c2ccc(Cl)cc2)nnc1SCc1nc2ccccc2c(=O)[nH]1	-0.7	5
CCCCC(C(N)=O)C(N)=O	·	4
O=C(/C=C/c1ccco1)Nc1ccc2c(c1)nc1n2CCCCC1	·	-1
CC(C(=O)O)c1n[nH]c(=O)c2ccccc12 (configuration not stated)	-1.8	10
C/C(=N/NC(=O)c1ccccc1)C1C(=O)c2ccccc2C1=O	·	8
CCCn1c(NCc2ccccc2O)nc2ccccc21	·	-6
C=CC[n+]1ccsc1N	0.9	-20
Cc1cc(NC(=O)C2CCCC2)nc2c1c(=O)oc1ccccc12	·	-25
CC(C)c1ccc(NC(=O)CN2CCC(n3nnc4ccccc43)CC2)cc1	-0.1	7
CC1ON(c2ccc(Br)cc2)C(=O)NC1=O (configuration not stated)	0.3	16
CSc1cc(-c2ccccc2)[o+]c(-c2ccccc2)c1	·	8
CC(C)(C)C1=N/C(=C\c2ccccc2)C(=O)O1	·	-31
O=c1nc2n3ccccc3ncc-2s1	·	17
CC(=O)Nc1ccc(C(=O)Nc2ccc(-c3nc4ccccc4o3)cc2)cc1	0.7	6
C(CC1CCNCC1)CC1CCNCC1	-2.2	·
CC(=O)ON1C(C)(C)C=C(C(N)=O)C1(C)C	-1.2	7
O=C(O)CNC(=O)CCCCC(=O)NCC(=O)O	0.5	·
Cc1c(-c2cccc(NC(=O)CC(C)C)c2)nc2ncccn12	·	4
CC(C)Oc1cccc(NC(=O)c2cnccc2C(F)(F)F)c1	-3.0	·
CC(=O)Nc1ccc(S(=O)(=O)N(C)Cc2ccc(C)o2)cc1	·	-3
O=C1N=c2ccccc2=C1c1[nH]c(=S)[nH]c1O	·	1
Cc1cc(/C=N/NC(=O)c2cccnc2)c(C)n1-c1cccc(S(=O)(=O)N2CCOCC2)c1	·	-3
O=C1CNC(=O)N1/N=C/c1cccc2ccccc12	-3.0	15
O=C(NCC1CCCO1)NC12CC3CC(CC(C3)C1)C2 (configuration not stated)	-3.6	10
O=C1c2cccnc2C(=O)N1c1ccc(-c2nc3cc(Cl)ccc3o2)cc1	-0.5	15
O=C(O)COCC(=O)Nc1ccc(Oc2c(Cl)cccc2Cl)nc1	·	6
Cc1cc(=O)oc2cc(OCC(=O)NCc3ccc(Cl)cc3)ccc12	-2.5	-6

An excerpt (hit frequency here may not be typical).
